# NPYLR7 ag: mosquito NPYLR7 agonism. HEK293T NPYLR7/Galpha15, GCaMP6s calcium fluorescence. activation, % at 10 µM. hit rate 0.15% among 270,000. AID 1259423; in the data active means activation above about 40%;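 further: 0% = vehicle and 100% = reference agonist at the receptor; some compounds past the cut are filed as inactive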
# NPYLR7 ag max-min: second read-out of NPYLR7 ag, no call of its own (marks repeat the call); activation, %; measured here: Max-Min RFU normalised activation; some inactives read as strong as hits;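 span of the calcium signal over five minutes; 0% = vehicle and 100% = native peptide agonist; compound fluorescence can raise it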
# Starred values were filed as active, the others as inactive; & = joins results of further samples; ! = repeats disagree.
# The opening 3 records, to show the layout:
SMILES | NPYLR7 ag max-min | NPYLR7 ag
CC(C)c1ccc(Nc2cc3c(cn2)cc(-c2cccnc2)n3C)cc1 | -15 | -16
COc1ccc(NC(=O)NCCNc2nc(-c3ccco3)nc3ccccc23)cc1 | 26 | 15
C=CCn1c(SCC(=O)OC(C)(C)C)nc2sc(C)c(C)c2c1=O | 6 | 9

# The whole of this part, previewed entries included:
SMILES | NPYLR7 ag max-min | NPYLR7 ag
CC(C)c1ccc(Nc2cc3c(cn2)cc(-c2cccnc2)n3C)cc1 | -15 | -16
COc1ccc(NC(=O)NCCNc2nc(-c3ccco3)nc3ccccc23)cc1 | 26 | 15
C=CCn1c(SCC(=O)OC(C)(C)C)nc2sc(C)c(C)c2c1=O | 6 | 9
COCCNC(=O)c1nn(CCC(C)C)c2c1CN(C(=O)c1[nH]c3c(C)cc(C)cc3c1C)CC2 | -3 | 9
O=C(CCNc1ccc(-n2ccnc2)cc1[N+](=O)[O-])NCCc1c[nH]c2ccccc12 | -5 | -3
CC(C)(C)NC1=C(n2nnc3ccccc32)C(=O)c2ccccc2C1=O | -1 | 1
CC(C)(C)c1ccc(C(CC(=O)NC2CC2)c2c[nH]c3ccccc23)cc1 (stereo not drawn) | 16 | 3
CCCCOc1ccc(/C=C2\N=C(c3ccc(Br)cc3)OC2=O)cc1 | -6 | -3
CC(C)n1cc(CN2CCC(C(=O)Nc3cccc(-c4cccc(Cl)c4)c3)CC2)cn1 | -6 | -5
O=S(=O)(c1ccc(F)cc1)N1CCC(N2CCCCC2)CC1 | 5 | 7
CCCCCCCCCCCC(=O)N1CCSC1c1ccc(OCc2ccccc2)cc1 (stereo not drawn) | 19 | 17
COc1ccc(C2=NN(C(=O)CN3CCC4(CC3)OCCO4)C(c3ccccc3Cl)C2)c(OC)c1 (stereo not drawn) | -4 | -5
CN1C[C@H](O)[C@]2(CCN(Cc3ccc(OC(F)(F)F)cc3)C2)S1(=O)=O | 6 | 4
NC(=O)c1cc(NC(=O)C2CCC2)ccc1Cl | 4 | 7
OC(CNc1nc(-c2cccnc2)nc2sc3c(c12)CCC3)C(F)(F)F (stereo not drawn) | 5 | 1
Cc1cc(-c2ccccc2)nc2cc(C(=O)Nc3ccc4c(c3)OCO4)nn12 | -9 | -7
CCc1nc2c(OCCC3CCCCC3)cccn2c1N(C)C(=O)COc1ccccc1 | -12 | 7
CC(C)(C)c1ccc(CC(=O)N2CCC2(C)C(=O)NS(=O)(=O)c2ccccc2Cl)cc1 (stereo not drawn) | 5 | 6
Cn1c(-c2nc(C(=O)N3CCNC(=O)C3)cs2)cc2ccccc21 | -2 | 0
O=c1cc(-c2ccccc2)[nH]n1-c1nc2ccccc2s1 | -13 | -7

# 3 of these compounds in a different format.
# Each structure is followed by: NPYLR7 ag max-min, NPYLR7 ag
- CC(C)(C)NC1=C(n2nnc3ccccc32)C(=O)c2ccccc2C1=O
→ -1, 1
- CC(C)(C)c1ccc(C(CC(=O)NC2CC2)c2c[nH]c3ccccc23)cc1 (stereo not drawn)
→ 16, 3
- CCCCOc1ccc(/C=C2\N=C(c3ccc(Br)cc3)OC2=O)cc1
→ -6, -3

# (continued)
SMILES | NPYLR7 ag max-min | NPYLR7 ag
COc1ccccc1C1c2c(n[nH]c2-c2cc(OC)c(OC)c(OC)c2)OC(=N)C1C#N (stereo not drawn) | 22 | 37
CCN1C(=O)N(Cc2cccc(OC)c2)C(=O)C12CCN(Cc1ccccc1Cl)CC2 | 2 | 10
Cc1nc2sc(C)c(C)n2c(=O)c1NC(=O)c1cccs1 | 6 | 15
FC(F)(F)c1ccc2c(c1)CCCN2Cn1nc2ccccn2c1=S | 4 | 4
CCOC(=O)c1ccc(NC(=O)N(CCN2CCCC2)CC(=O)N(CCc2ccc(OC)c(OC)c2)Cc2sccc2C)cc1 | 2 | -1
C=CCSc1nnc(-c2cc(OC)cc(OC)c2)n1CC=C | 21 | 11
O=C(O)c1cccc(-c2noc(-c3ccccc3F)n2)c1 | -2 | -1
O=C(C1CC1)N(c1ccccc1)C1C=CS(=O)(=O)C1 (stereo not drawn) | 12 | 11
O=C1c2cccc3c(NCC(O)CCl)ccc(c23)C(=O)N1c1ccccc1 (stereo not drawn) | 73*! | 94*!
CN(C)C(=O)CN(C)S(=O)(=O)c1ccc(F)c(F)c1 | 1 | 6
O=C1NC2(CCc3ccccc3C2)Nc2cc(Cl)ccc21 (stereo not drawn) | 13 | 0
COc1ccc(OC)c(C2SCC(=O)N2CCC(=O)O)c1 (stereo not drawn) | -7 | -1
CCOC(=O)C1=C(C)NC(=O)NC1c1ccc([N+](=O)[O-])cc1 (stereo not drawn) | 2 | 1
O=C(CCN(c1nc(-c2ccc(F)cc2)nc2ccccc12)C1CCCCC1)NCc1ccccc1 | 11 | 1
Oc1c2cccnc2cn1CCc1csc(-c2cccnc2)n1 | -4 | 0
O=C(NCCNc1cccnc1)[C@H]1CCCO1 | -1 | -1
N#CC(Cc1ccc(O)c(O)c1)C(=O)N1CCc2ccccc21 (stereo not drawn) | 10 | -1
O=S1(=O)CCC(N2CCSC2=Nc2ccc(Cl)cc2)C1 (stereo not drawn) | -4 | -2
CC(=O)Nc1sc2c(c1-c1nc3ccccc3s1)CCC(C)C2 (stereo not drawn) | 5 | -1
COc1ccc(C(=O)Nc2ccc(-c3nc4cc(C)cc(C)c4o3)cc2)cc1OC | -2 | 3

# Entries above with an aryl thioether with sulfur outside any ring, in the order listed:
SMILES | NPYLR7 ag max-min | NPYLR7 ag
C=CCn1c(SCC(=O)OC(C)(C)C)nc2sc(C)c(C)c2c1=O | 6 | 9
C=CCSc1nnc(-c2cc(OC)cc(OC)c2)n1CC=C | 21 | 11

# Next section
SMILES | NPYLR7 ag max-min | NPYLR7 ag
COCCNC(=O)Cn1cc(-c2nnc(-c3ccccc3)o2)c2ccccc21 | 3 | 0
CC(C)(C)N(CC(C#N)CCC#N)c1n[nH]c(=S)s1 (stereo not drawn) | 10 | 2
Cc1nnc(CNC(=O)CCSc2ccc3c(c2)OCCO3)o1 | -3 | -2
CC(C)Cn1ccnc1-c1ccccc1Cn1cccn1 | -4 | 0
Cc1nc(-n2ccc3nc4ccn(C5CCCCCC5)c(=O)c4cc3c2=O)n[nH]1 | 9 | 4
COc1ccc(CCNc2ncc3c(n2)c(=O)c(C#N)c2ccccn23)cc1OC | -2 | 1
CCCCSc1nc2c(c(=O)[nH]1)C(c1ccc(C(C)C)cc1)C(C(=O)OC)C(C)=N2 (stereo not drawn) | -6 | -7
COc1ccccc1CNC(=O)C1CCC(=O)N(CCCc2ccccc2)C1 (stereo not drawn) | 1&0 | 3&5
O=C(CCc1nnc(-c2ccsc2)o1)N1CCCCC1CCc1ccccn1 (stereo not drawn) | -4 | -4
CCn1c(SC)nc2c([nH]c3ccccc32)c1=O | -3 | -3

# Complete entries from above:
# `O=C(CCc1nnc(-c2ccsc2)o1)N1CCCCC1CCc1ccccn1` (stereo not drawn) as listed: NPYLR7 ag max-min = -4; NPYLR7 ag = -4
# `CC(C)(C)N(CC(C#N)CCC#N)c1n[nH]c(=S)s1` (stereo not drawn) as listed: NPYLR7 ag max-min = 10; NPYLR7 ag = 2

# Additional records
SMILES | NPYLR7 ag max-min | NPYLR7 ag
COC(=O)c1ccc(CN2CCc3c(c(C(=O)NCc4ccccc4)nn3C)C2)cc1 | 0 | 12
O=C(COC(=O)c1ccc2c(c1)CCC2)NCC(F)(F)F | 2 | 4
O=C(Nc1cccc(-c2ccc(F)cc2)c1)C1CCCN(C(=O)c2cccs2)C1 (stereo not drawn) | -10&-9 | -7&-6
CC(=O)NC(C(=O)N=c1sc2ccccc2n1C)C1CCCC1 (stereo not drawn) | -4 | -5
CC(C)Cn1ccnc1CNc1cccc(F)c1C#N | -2 | 1
c1ccc(COCc2c(-c3ccccc3)ncn2CC2CCOCC2)cc1 | 4 | 7
COc1cc(=O)n(-c2ccc(C)cc2)nc1C(=O)Nc1ccc(Oc2ccccc2)cc1 | 0 | 6
CNc1nc2cnc(-c3ccc(O)c(OC)c3)cc2n1Cc1ccccc1 | -3 | 4
CC(=O)Nc1ccc(CC(=O)N2CCOC(c3ccc(F)cc3)C2)cc1 (stereo not drawn) | -1 | 2
COc1ccc(S(=O)(=O)N2CCN(c3nc(CCc4ccccc4)nc4sc(C)c(C)c34)CC2)cc1 | -1 | -2
Cc1cc(C)n(CCCN(C)c2cc(N(C)C)ncn2)n1 | 5 | 8
O=C(CC1S/C(=N/N=C\c2ccco2)NC1=O)Nc1ccc(C(=O)O)cc1 (stereo not drawn) | 4 | 4
Cc1ccc2cc(C3(O)CCN(C(=O)C4(C)CCCCO4)CC3)ccc2n1 (stereo not drawn) | 9 | 8
COc1cc2c(C#N)c(N3CCc4ccccc4C3)nc(N)c2c(N)n1 | -8 | -5
CSc1ncc(CN2CCC(n3nccc3NC(=O)C3CCCC3)CC2)cn1 | 1 | 13

# A portion of the library. The share of hits here may be higher or lower than overall.
